From PubChem BioAssay
VDR inhibitor – Inhibitors of the vitamin D receptor (VDR): qHTS | Vitamin D3 receptor (Homo sapiens), P11473 | VDR-SRC2-3 peptide fluorescence polarization, 2 h | Potency, µM, inactives show max response, negative = inhibition, usual class: inhibitors | actives 0.93% (n = 400,000); active = well fitted inhibition curve with a large enough effect; inconclusive = small, poorly fitted or top-dose-only effect, or another doubt; inactive = no such curve, though single readings can be large or run the other way; also: series mostly up to about 120 µM
Target sequence (P11473 whole entry, looked up): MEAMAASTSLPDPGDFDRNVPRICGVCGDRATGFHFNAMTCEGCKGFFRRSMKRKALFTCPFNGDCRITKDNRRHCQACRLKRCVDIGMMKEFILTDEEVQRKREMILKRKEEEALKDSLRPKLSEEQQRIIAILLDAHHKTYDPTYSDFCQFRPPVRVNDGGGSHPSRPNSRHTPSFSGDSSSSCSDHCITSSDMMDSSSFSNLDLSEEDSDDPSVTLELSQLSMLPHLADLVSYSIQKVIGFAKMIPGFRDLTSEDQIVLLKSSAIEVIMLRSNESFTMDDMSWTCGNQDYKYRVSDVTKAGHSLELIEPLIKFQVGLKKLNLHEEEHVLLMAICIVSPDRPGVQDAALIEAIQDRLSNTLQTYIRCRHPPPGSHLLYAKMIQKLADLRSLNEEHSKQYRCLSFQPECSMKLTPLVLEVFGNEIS
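After 23 nl compound addition and a short centrifugation, plates sat for 2 hours at ambient temperature; polarization of fluorescence then indicated loss of VDR binding to peptide SRC2-3.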
* marks the source's active call; other numbers are inactive results; ? = inconclusive. % is scaled to controls: 0 for no effect and ±100 for the full control effect; potency is read from the fitted curve at half-maximal effect. An excerpt. The share of hits here may be higher or lower than overall.

| canonical_smiles | VDR inhibitor |
| --- | --- |
| CC(OC(=O)c1nsc(Cl)c1Cl)C(=O)NCc1ccc2c(c1)OCO2 (stereo not given) | -2% |
| Cc1c(NC(=O)C(C)C)cccc1-c1nc2ncccc2o1 | 0% |
| CCN(C[C@H]1N[C@@](C)(C(=O)OC)[C@H]2C(=O)N(Cc3ccccc3)C(=O)[C@@H]12)C(=O)Nc1ccc(OC)cc1 | -2% |
| COc1cccc(N2CCN(CC(=O)C34CC5CC(CC(C5)C3)C4)CC2)c1 | -2% |
| O=C(O)c1ccc(-n2cc(C(=O)c3ccccc3O)cn2)cc1 | 10% |
| COc1ccc(-c2cn3c(n2)sc2cc(C(=O)Nc4ccc(C)c(C)c4)ccc23)cc1 | 25% |
| O=C(O)/C(=C/c1ccc(Cl)c([N+](=O)[O-])c1)c1ccc(S(=O)(=O)N2CCCCC2)s1 | ? |
| CC(C)N(C(=O)CSc1nc2ccccc2n1Cc1ccccc1F)C(C)C | -15% |
| C=CCC[C@H](Cc1ccc(F)cc1)C(=O)OC[C@@H](Cc1c[nH]c2ccccc12)NC(=O)[C@H](CC=C)CC(=O)N(CCO)Cc1ccccc1 | -18% |
| COc1cc(C2C3=C(CC(C)(C)CC3=O)N(C)C3=C2C(=O)CC(C)(C)C3)ccc1O | 10% |
| Cc1ccccc1C(=O)N1CCC(n2nccc2NC(=O)CCOc2ccccc2)CC1 | -1% |
| COc1cc(CNCc2ccco2)ccc1OCc1ccccc1 | 0% |
| COc1ccc(C(=O)N/N=C\c2ccc(OC)c(COc3ccccc3Br)c2)c(OC)c1 | 12% |
| Cc1ccccc1NC(=O)CSc1nnc(C)c2ccccc12 | -8% |
| CC(=O)N(c1ccccc1)c1ccc([N+](=O)[O-])cc1[N+](=O)[O-] | -11% |

Quoted at random: four compounds from above, in no set order.
| canonical_smiles | VDR inhibitor |
| --- | --- |
| COc1ccc(C(=O)N/N=C\c2ccc(OC)c(COc3ccccc3Br)c2)c(OC)c1 | 12% |
| C=CCC[C@H](Cc1ccc(F)cc1)C(=O)OC[C@@H](Cc1c[nH]c2ccccc12)NC(=O)[C@H](CC=C)CC(=O)N(CCO)Cc1ccccc1 | -18% |
| COc1cccc(N2CCN(CC(=O)C34CC5CC(CC(C5)C3)C4)CC2)c1 | -2% |
| CC(OC(=O)c1nsc(Cl)c1Cl)C(=O)NCc1ccc2c(c1)OCO2 (stereo not given) | -2% |

The listing picks up, repeating the six entries before the break.
| canonical_smiles | VDR inhibitor |
| --- | --- |
| COc1cc(C2C3=C(CC(C)(C)CC3=O)N(C)C3=C2C(=O)CC(C)(C)C3)ccc1O | 10% |
| Cc1ccccc1C(=O)N1CCC(n2nccc2NC(=O)CCOc2ccccc2)CC1 | -1% |
| COc1cc(CNCc2ccco2)ccc1OCc1ccccc1 | 0% |
| COc1ccc(C(=O)N/N=C\c2ccc(OC)c(COc3ccccc3Br)c2)c(OC)c1 | 12% |
| Cc1ccccc1NC(=O)CSc1nnc(C)c2ccccc12 | -8% |
| CC(=O)N(c1ccccc1)c1ccc([N+](=O)[O-])cc1[N+](=O)[O-] | -11% |
| CN(C)c1ccc(C(=S)N2CCCCC2)cc1Br | 1% |
| COC(=O)c1ccc(NC(=S)Nc2ccc3ccccc3c2)cc1 | -20% |
| CCN(CC)CCOc1ccc(-c2nc3cc(Cl)ccc3s2)cc1 | 1% |
| O=C1OCC(CO)(CO)N=C1NNc1ccccc1Cl | -1% |
| O=C(NCc1ccc2c(c1)OCO2)C1CCN(S(=O)(=O)c2cccc3nsnc23)CC1 | -2% |
| CCCCn1c(N)c(N(Cc2ccccc2)C(=O)COc2ccccc2F)c(=O)[nH]c1=O | -12% |
| N#Cc1ccc(Oc2nc(C#N)cc(-c3ccccc3)n2)cc1 | -6% |
| COc1ccc(NC(=O)Nc2ccc3c(c2)CC(=O)N([C@H](C)CO)C[C@H](C)[C@H](CN(C)Cc2ccc(C(=O)O)cc2)O3)cc1 | 5% |
| COCCN(C(=O)c1ccc2ccccc2c1)c1c(N)n(Cc2ccccc2)c(=O)[nH]c1=O | -5% |
| CC(C)(C)NC(=O)C(c1ccc(-c2ccccc2)cc1)N(C[C@H]1CC[C@@H]([C@@H]2CC[C@H](CO)O2)O1)C(=O)c1ccc(C(C)(C)C)cc1 (stereo not given in full) | 2% |
| O=S(=O)(c1ccc(C2=CSC3=NCCN23)cc1)N1CCOCC1 | 12% |
| COc1ccc(CC(=O)NCCc2csc(-c3cccc(C)c3)n2)cc1 | 0% |
| Cc1sc2nc(N)sc2c1C | -10% |
| Cc1[nH]c(=O)[nH]c(=O)c1S(=O)(=O)Nc1ccc(F)cc1F | -1% |
| COc1ccccc1C(=O)NCCC(=O)NCc1cccs1 | -8% |
| COc1ccc(OC)c(CNC(=O)C2CCN(S(=O)(=O)c3cn(C)cn3)CC2)c1 | 7% |
| COc1ccc(C(=O)OCC(=O)NC(=O)Nc2ccccc2F)c(OC)c1 | 1% |
| NC(=O)COC(=O)c1cccc(S(=O)(=O)N2CCN(c3ccc(F)cc3)CC2)c1 | 4% |
| COCCn1c(SCC(=O)N2CC(C)OC(C)C2)nc2c([nH]c3ccccc32)c1=O (stereo not given) | -6% |
| COc1ccc(CCNC(=O)CCn2c(=O)c3ccccc3n(Cc3cc(C)ccc3C)c2=O)cc1OC | 5% |
| Cc1cc(NC(=O)Nc2ccccc2)n(C(C)(C)C)n1 | -7% |
| COC(=O)CN(CCc1ccccc1)S(=O)(=O)c1ccc(OC)c(OC)c1 | 8% |
| O=C(NC1CCS(=O)(=O)C1)c1ccccc1C(=O)c1ccccc1 (stereo not given) | 11% |
| COc1ccc(-c2c(-c3cc(OC)cc(OC)c3)sc3ccc(OC)cc23)cc1 | -25% |
| O=C(CN1C(=O)NC2(CCCCC2)C1=O)NCC(=O)Nc1ccc(F)c(F)c1 | 1% |
| COc1ccccc1-n1c(=O)[nH]c2c(C(N)=O)nc(CC(C)C)nc21 | -19% |
| COc1cc(Cl)ccc1OCc1cc(C(=O)NCc2cc(C(C)C)no2)no1 | 15% |
| O=C(COC(=O)COc1ccccc1F)NCCc1ccc(F)cc1 | 14% |
| COc1cc2c(cc1NC(=O)c1ccco1)CCCC2 | 5% |
| O=C(COc1ccc2ccccc2c1)Nc1ccc(S(=O)(=O)N2CCCCCC2)cc1 | 18% |
| O=C(NCC1CCCO1)c1cc2c([nH]c3ccccc32)c(-c2ccc(F)cc2)n1 (stereo not given) | 2% |
| CCOc1ccc(C(=O)N2CCc3ccccc32)cc1OCC | -22% |
| Cc1cccc(NC(=O)c2ccc(OC3CSC3)cc2)c1 | 3% |
| O=C(c1cnn2c(C(F)(F)F)cc(-c3ccc(F)cc3)nc12)N1CCc2ccccc2C1 | 5% |
| O=C1CCC(C(=O)N2CCSCC2)CN1CCc1cccc(F)c1 (stereo not given) | -21% |
| Cc1ccc(C(=O)Nc2cccc(Oc3ccccc3)c2)o1 | -7% |
| COc1cc(C(=O)NNC(=O)CN2C(=O)NC(C)(c3ccc(C)cc3)C2=O)cc(OC)c1OC (stereo not given) | -12% |
| COc1cn(CC(=O)Nc2c(C)cc(C)cc2C)c(CN2CCCCC2)cc1=O | 14% |
| Cc1ccc(NC(=O)Cn2c(=O)n(Cc3ccco3)c(=O)c3oc4ccccc4c32)cc1C | 17% |
| Cn1c(C(O)C(O)c2ccccc2)nc2ccccc21 (stereo not given) | 0% |
| O=C(OCc1ccccn1)c1ccc(COc2ccc3ccccc3c2)o1 | 2% |
| Cc1cccc(NC(=O)CS(=O)(=O)c2cn(C)c3ccccc23)c1C | -4% |
| Cc1cc(C)n(-c2nc(NCCCN(C)C)c3c4c(sc3n2)COC(C)(C)C4)n1 | 1% |
| O=C(Oc1c(CN2CCOCC2)cc(Cl)c2cccnc12)c1cccs1 | 1% |
| CCN(CC)S(=O)(=O)c1ccc(N2CCCC2)c(NC(=O)c2ccc([N+](=O)[O-])o2)c1 | -10% |

(more compounds)
Structure | VDR inhibitor
COc1ccc(-c2csc3ncnc(N4CCN(S(=O)(=O)c5ccccc5C#N)CC4)c23)cc1 | -15%
Cc1ccc(OCC(=O)N(C)CC(=O)N(CC(C)C)c2c(N)n(CC(C)C)c(=O)[nH]c2=O)c(C)c1 | -13%
CCCCOc1ccc(CSc2nc(C)[nH]c2[N+](=O)[O-])cc1[N+](=O)[O-] | 12%
O=C1c2ccccc2OCOc2ccccc21 | 9%
O=[N+]([O-])c1ccc2nc(-c3ccccc3[N+](=O)[O-])[nH]c2c1 | 7%
CC(=O)N1c2ccc(C)cc2Sc2c1ccc1ccccc21 | -5%
COc1ccc(NC(C)=O)cc1S(=O)(=O)N1CCN(Cc2cccs2)CC1 | 0%
COC(=O)Nc1ccc(S(=O)(=O)N2CCN(C)CC2)cc1 | -2%
O=C1NC2(CCCCC2)CO1 | 8%
CNC(=S)NNC(=O)c1ccc(=O)n(Cc2cccc(C(F)(F)F)c2)c1 | -10%
O=C(c1cc2cc(Cl)ccc2[nH]1)N1CCN(Cc2ccc3c(c2)OCO3)CC1 | -4%
Clc1ccc(-c2ccn[nH]2)cc1 | -9%
O=C(COC(=O)C1(c2ccc(F)cc2)CCCC1)N1CCc2ccccc21 | 0%
Cc1cc(Br)ccc1OCCCCNC(C)(C)C | ?
O=C1c2ccccc2N2C(=O)c3ccccc3C2N1Cc1ccccc1 (stereo not given) | -6%
CCCSc1nc(N)c2c3c(sc2n1)CN(C)CC3 | 9%
CCOC(=O)c1cc(NC(=O)c2ccc(F)cc2)c(=O)n2c1oc1ccc(Cl)cc12 | 1%
CCS(=O)(=O)c1nc(S(=O)(=O)c2ccc(Cl)cc2)c(NCc2ccccc2Cl)s1 | 3%
CN(C(=O)COC(=O)COc1ccccc1Cc1ccccc1)c1ccccc1 | 10%
Nc1c(C(=O)O)cnn1-c1ccccc1 | -6%
Cc1ccc2c(c1)C1C[N+](C)(CC(=O)c3ccccc3)CCC1N2C(=O)c1ccccc1Cl (stereo not given) | -2%
CC(OC(=O)Cc1coc2cc3c(cc12)CCC3)C(=O)NC(N)=O (stereo not given) | -13%
O=C(NC[C@@H]1CCCCN1)c1cc(OCC(F)(F)F)ccc1OCC(F)(F)F | -2%
O=C(c1cnn(-c2nc3ccccc3s2)c1)c1ccccc1O | -17%
CCOC(=O)C1CCCCN1C(=O)c1cc2ccc(OC)cc2c2cc(OC)c(OC)cc12 (stereo not given) | -13%
COc1ccccc1N1CCN(C(=O)CSc2nnc(-c3ccoc3C)o2)CC1 | 3%
CCOC(=O)C(C)S(=O)(=O)c1ccc(C(F)(F)F)cn1 (stereo not given) | 22%
CC(C)=CCc1c(O)cc2oc3c(CC=C(C)C)c(O)c(O)c(CC=C(C)C)c3c(=O)c2c1O | -11%
Cc1cc(S(=O)(=O)N2CCCC(N3CCOCC3)C2)c(C)cc1Cl (stereo not given) | -19%
CCOC(=O)c1c(-c2ccc(Cl)cc2)csc1NC(=O)CNCc1ccco1 | -13%
COc1cccc(Nc2ncc3nc(C)c(=O)n(C4CC4)c3n2)c1 | 6%
N#Cc1ccccc1NC(=O)CN1CCOCC1 | 24%
Clc1cccc(Cl)c1Cn1cc(Br)cn1 | 8%
CCOc1ccc(NS(=O)(=O)c2cc(C(=O)NCCCN3CCCC3=O)ccc2C)cc1 | -5%
Cc1ccccc1NC(=O)CSc1cn(CC(=O)N2CCCCCC2)c2ccccc12 | 11%
O=C(COC(=O)C1CCN(S(=O)(=O)c2cccs2)CC1)c1ccc2c(c1)OCCO2 | 7%
O=C(NCCc1cccc(Cl)c1)c1ccc2c(c1)OCO2 | 10%
O=C(NC1CC1)C1=C[C@@H](c2ccc(C(F)(F)F)cc2)C[C@@H](OCCCCO)O1 | -6%
CCCC(=O)C1=C(O)C(C(=O)OC)C(C)(C)CC1=NCCCCCC(=O)O (stereo not given) | -10%
CC(Oc1ccccc1F)C(=O)NC1CCS(=O)(=O)C1 (stereo not given) | 9%
CCCC(=O)NNC(=O)c1c(O)c2ccccc2[nH]c1=O | 12%
COc1ccc(S(=O)(=O)N(CC(=O)NC2CC2)Cc2ccccc2)cc1 | 7%
O=C(NCCN1CCCCCC1)C1CCC(CNS(=O)(=O)c2cccc3cccnc23)CC1 (stereo not given) | -4%
COc1ccc(CCNc2nc(-c3cccnc3)cs2)cc1OC | -17%
COc1ccccc1NC(=O)NNC(=O)COc1ccc2ccccc2c1 | 4%
Cc1ccc(OCCSc2cc(C)nc(N)n2)cc1 | 4%
COC(=O)CCC(=O)N1CCCC(CO)(Cc2ccccc2)C1 (stereo not given) | -11%
COc1ccc(NC(=O)CN2C(=O)CSC(C)C2=O)cc1 (stereo not given) | -29%
CCN(CC)c1ccc(/C=N/Nc2nc(C)cc(C)n2)cc1 | -3%
O=C(NCc1ccccc1)C(c1ccc(F)cc1)N(Cc1ccco1)C(=O)c1ccccn1 (stereo not given) | -4%
N#Cc1ccc(C(=O)CSc2n[nH]c(=O)n2Cc2ccco2)cc1 | -14%
CC(C)NC(=O)COc1ccc(Cl)cc1Cl | -9%
O=[N+]([O-])c1ccc(/C=N/NC(=S)Nc2ccccc2F)o1 | -14%
CCOCCCNC(=O)CN1N=C(c2ccc(C)cc2)CCC1=O | ?
CC1CCC(NC(=O)CN(C)S(=O)(=O)c2cnc[nH]2)CC1 (stereo not given) | 0%
NC(=O)CSc1nnc(CSc2ncccn2)n1-c1ccccc1 | -4%

Additional records follow:
Structure | VDR inhibitor
COc1cccc(NC(=O)Cc2nnc(SCC(=O)NC3CCCCC3)n2C)c1 | -9%
Brc1ccc(-c2ccc(CNCc3ccccn3)o2)cc1 | -28%
CCOC(=O)c1c(NC(=O)C(Sc2ccccc2)c2ccccc2)sc(C(N)=O)c1C (stereo not given) | -9%
Brc1ccc(-c2csc(N3CCCCCC3)n2)cc1 | 1%
CCOc1cc(-c2sc(Nc3ccc(CC)cc3)n[n+]2-c2ccccc2)ccc1OC | -9%
CC1CCC2C(=O)N(c3cc(Cl)ccc3OC(=O)c3ccco3)C(=O)C2C1 (stereo not given) | -3%
O=C(Nc1ccc(F)c(Cl)c1)C1CC2CCC1C2 (stereo not given) | 18%
N/C(=N\OCc1ccc([N+](=O)[O-])cc1)c1ccccn1 | 1%
